ClpP mod: qHTS Assay for Activators of ClpP. Potency, µM (doses to about 57.5 µM), for the others: at the top dose activity change, negative = active. AID 651965, 2013. ATP-dependent Clp protease proteolytic subunit (Bacillus subtilis (strain 168)), P80244. hit rate 1.9% among 340,000. purified B. subtilis ClpP, FRET peptide cleavage, 20 min; active = well fitted falling curve with a large enough effect; inconclusive = small, poorly fitted or top-dose-only effect; inactive = no such curve, though single readings can be large or run the other way; note: potency is the fitted concentration of half-maximal effect; the source files actives as falling curves though it sought activators and does not explain the sign; nearly all actives have a fitted effect of over 65% in size; many hits overshoot -100%
Target sequence (P80244 whole entry, looked up): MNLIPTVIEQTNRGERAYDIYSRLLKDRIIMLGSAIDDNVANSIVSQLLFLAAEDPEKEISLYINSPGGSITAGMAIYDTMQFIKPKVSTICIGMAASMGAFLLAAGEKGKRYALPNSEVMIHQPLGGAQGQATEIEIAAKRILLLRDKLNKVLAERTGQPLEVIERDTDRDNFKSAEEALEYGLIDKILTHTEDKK
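FRET quenching reversal measured ClpP activation: 10 microg/mL B. subtilis ClpP at pH 8 with the FRET-FV decapeptide, read at 430 nm after 320 nm excitation. The 20-min minus 0-min signal was scaled between DMSO/no-enzyme wells and ADEP (5.8 microM final).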
TRPV1 potentiator: potentiators of human vanilloid receptor 1 (TRPV1) | potentiation, % at 8.33 µM | TRPV1-expressing cells, Fluo-8 calcium influx, capsaicin EC20 potentiation; host cell line not named in the record; control for the full effect not named in the record | Q8NER1 | AID 540277 | hit rate 0.02% among 320,000; active means potentiation above 80%; inconclusive means 30% to 80%; inactive means below 30%; note: 0% is about no effect
Target sequence (Q8NER1 whole entry, looked up): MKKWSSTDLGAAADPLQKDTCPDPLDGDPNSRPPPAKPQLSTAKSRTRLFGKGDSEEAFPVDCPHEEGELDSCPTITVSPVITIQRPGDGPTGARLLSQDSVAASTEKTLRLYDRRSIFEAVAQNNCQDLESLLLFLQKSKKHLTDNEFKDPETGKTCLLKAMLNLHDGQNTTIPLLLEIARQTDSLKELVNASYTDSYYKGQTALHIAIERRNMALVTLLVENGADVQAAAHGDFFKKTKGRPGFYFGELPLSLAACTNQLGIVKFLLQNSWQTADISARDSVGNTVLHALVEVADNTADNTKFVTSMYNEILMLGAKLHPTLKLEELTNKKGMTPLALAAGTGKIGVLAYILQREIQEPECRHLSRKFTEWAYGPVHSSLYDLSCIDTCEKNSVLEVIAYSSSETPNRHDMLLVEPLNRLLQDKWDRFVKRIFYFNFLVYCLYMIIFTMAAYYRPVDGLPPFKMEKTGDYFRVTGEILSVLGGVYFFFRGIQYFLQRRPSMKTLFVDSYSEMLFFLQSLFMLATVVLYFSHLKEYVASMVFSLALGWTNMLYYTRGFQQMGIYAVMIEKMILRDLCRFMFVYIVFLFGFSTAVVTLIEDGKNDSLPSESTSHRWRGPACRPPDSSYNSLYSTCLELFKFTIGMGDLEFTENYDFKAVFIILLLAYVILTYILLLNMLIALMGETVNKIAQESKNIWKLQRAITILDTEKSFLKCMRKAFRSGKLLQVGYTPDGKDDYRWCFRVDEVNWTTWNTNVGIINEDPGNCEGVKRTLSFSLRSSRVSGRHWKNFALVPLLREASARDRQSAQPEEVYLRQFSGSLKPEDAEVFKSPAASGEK
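Fluo-8 calcium influx in TRPV1-expressing cells, kinetic read (ex 480/em 520 nm). Compound added and read 3 min for agonist activity, followed by capsaicin at EC20 final and 2 min further read for enhancement.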
TRPML1 blocker: human mucolipin-1 channel inhibition; hit rate 0.02% among 390,000; Q9GZU1; TRPML1-inducible cells, Ca2+ dye fluorescence, FDSS; hits give low values; inhibition of EC80 agonist-evoked calcium signal; activity change, negative = inhibition, % (concentration not given with the values); in the data active means activity change below about -50%; inconclusive means about -30% to -50%; inactive means above about -30%;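 note: stimulus is agonist 54-4 at its EC80 concentration; % is set by controls: 0 for no effect and ±100 for the full control effect; compound concentration not given in the record; the text of the record puts the active cut at -80%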
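TRPML1-DL cells, Tet-induced overnight (~16 h, 37 °C) at 1,500 cells/well, were loaded with Ca8 no-wash dye plus quencher for 45-90 min at room temperature. Compounds were pinned during FDSS kinetic reading; agonist 54-4 at EC80 (4 uM final) then added.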
Menin MLL FP FL: displaces fluorescein MLL peptide from human menin | 290,000 tested, under 10 active | AID 1766 | Fluorescence polarization, fluorescein-MLL peptide displacement from menin | FP activity change, % at 61.4 µM; inconclusive = falling polarisation curve, or a change in total fluorescence; inactive = total fluorescence flat and polarisation flat or rising; no compound was filed as active; the % refers to the polarisation; negative = inhibition;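 note: % of control where 0% means no effect; inhibitors lower the polarisation; unlabelled MLL peptide was the positive control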
TRPML1 ag: agonists of human TRPML1 channel | TRPML1-expressing cells, Ca2+ dye fluorescence, FDSS; host cell line not named in the record; reference of the full effect not given here | AID 624414 | hit rate 0.12% among 410,000 | Q9GZU1 | activation, % (concentration not given with the values); in the data active = activation above about 50%; inconclusive = about 30% to 50%; inactive = below about 30%; note: 0% is about no effect; the text of the record puts the active cut at 80%
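In this qHTS format, compounds were pin-transferred onto Ca8-dye-loaded TRPML1-DL cells induced with Tet overnight, and intracellular Ca2+ fluorescence was recorded kinetically for 110 s after a 10 s baseline. A subsequent 4uM final 54-4 (EC80) addition followed by a second 110 s read served as the antagonist phase.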
PINK1 modulator: PINK1 expression modulation. AID 624263. Potency, µM (titrated, usually from 76.6 µM), inactives show top-dose activation (PINK1 increase), usual class: activators. PINK1 immunofluorescence, high-content cytometry, 24 h. hit rate 0.2% among 410,000; active = well fitted activation curve with a large enough effect; inconclusive = small, poorly fitted or top-dose-only effect; inactive = flat fitted curve, though single readings scatter; cell line not stated here;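 note: potency is the fitted concentration of half-maximal effect; % of control where 0% means no effect; nearly all actives have a fitted effect of over 65% in size; a mitochondrial uncoupler was the plate control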
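PINK1 protein level read as immunofluorescence by microplate cytometer in a fixed, stained stable cell line after 24 h exposure to five compound concentrations, with CCCP as control.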
Sfp inh: blocks B. subtilis Sfp PPTase activity; Potency, µM, without a hit: max response, negative = inhibition, usual class: inhibitors; Biochemical Sfp PPTase activity, qHTS; hit rate 3.5% among 310,000; AID 1490; active = well fitted inhibition curve with a large enough effect; inconclusive = small, poorly fitted or top-dose-only effect, or another doubt; inactive = no such curve, though single readings can be large or run the other way;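 note: the enzyme is Sfp with the accession as filed and its product quenches rhodamine fluorescence; potency is the fitted concentration of half-maximal effect; 0% = enzyme reaction without inhibitor and -100% = no enzyme wells; top concentration of the series not given in the record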
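Sfp 15 nM + cpd, 15 min RT; start w/ rhodamine-CoA 5 uM, BHQ-2-YbbR 12.5 uM (final); 50 mM Hepes pH 7.6, 10 mM MgCl2, 0.01% NP-40, 0.01% BSA; read 525/598 nm at 0 and 30 min.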
An asterisk follows results filed as active; ? = inconclusive; . = no result given; & = joins results of further samples; [ ] = dose if it differs, or a comment.

structure,ClpP mod,TRPV1 potentiator,TRPML1 blocker,Menin MLL FP FL,TRPML1 ag,PINK1 modulator,Sfp inh
Cc1ccc(C(=O)Nn2cnnc2)c(Cl)c1,-2.7%,-9,7,2.4,0.1,-0.6%,19%
O=C(COC(=O)c1cnc(Cl)c(Cl)c1)NC1CCCC1,-2.1%,.,30,.,0.1,-0.1%,.
CC(C)(C)c1[nH]nc2c1C(c1ccc(OC(=O)c3ccco3)cc1)C(C#N)=C(N)O2 (centres undefined),-0.5%,.,14,5.8,1.5,-0.1%[38.3 µM],-10%
CCOc1ccccc1-c1nc(SCC(=O)c2ccc(OC)c(Br)c2)n[nH]1,0.6%,.,30,.,0.7,0.3%,.
CC(C)(C)NC(=O)C(c1ccc(O)cc1)N(Cc1ccc2c(c1)OCO2)C(=O)CCl (centres undefined),-0.3%,.,11,.,-0.4,0.8%,.
CC(=O)Nc1ccc(N/C=C(\C=O)c2nc3ccccc3o2)cc1,.,5,-10,3.5,2.5,3.2%,3%
COc1ccc(NC(=O)CCS(=O)(=O)c2cc3c(cc2C)NC(=O)CO3)cc1Cl,-0.1%,.,?,.,0.9,-1.0%,.
Cc1ccc(-c2nc(NCc3ccco3)n(C(=O)c3ccco3)n2)cc1,-1.7%,-2,-10,-0.1,-0.5,8.5%,-11%
CC(C)(C)NC(=O)C(=O)NCc1ccccn1,.,2,-1,-1.1,0.2,2.1%,12%
Cn1cnnc1SCC(=O)c1c(N)n(Cc2ccccc2)c(=O)n(C)c1=O,.,-7,7,-0.7,-0.7,-0.5%,11%
C=CCSc1nc(=O)n2ccccc2n1,.,-6,7,-4.1,-0.5,2.2%,-9%
CCn1c(SCC(=O)N2CCC(C)CC2)nc2c1c(=O)n(C)c(=O)n2C,-1.7%,24,4,4.6,-1.2,3.2%,10%

Following part.
structure,ClpP mod,TRPV1 potentiator,TRPML1 blocker,Menin MLL FP FL,TRPML1 ag,PINK1 modulator,Sfp inh
COc1ccc(CNC[C@H]2O[C@@H](n3cnc4c(N)ncnc43)[C@H](O)[C@@H]2O)cc1OC,0.1%,.,-3,.,1.2,-0.9%,.
COc1ccccc1CNC(=O)COC(=O)c1cnccn1,0.1%,-5,1,2.3,-1.0,0.6%,-3%
CCCCn1c(N)c(N(CCOC)C(=O)c2cnccn2)c(=O)[nH]c1=O,4.6%,18,13,.,0.8,-1.0%,.
CCCOC(=O)c1ccc(NC(=O)C2CC(=O)N(c3ccc(C)cc3)C2)cc1 (centres undefined),0.6%,.,-6,.,1.9,-1.5%,.
CC(C)OC(=O)Nc1ccc2c(c1)N(C(=O)CCN1CCN(CCO)CC1)c1ccccc1CC2,.,7,9,-1.7,0.4,3.7%,-11%
Nc1nc(NC(=O)c2ccc(F)cc2)ns1,-0.9%,-6,-9,.,-0.3,-0.5%,.
COC(=O)c1cccc(NC(=O)Nc2ccc(Cl)cc2Cl)c1,0.3%,2,-2,1.2,-0.4,11%,3%
COc1cccc(CNC(=O)CCCn2c(=S)[nH]c3cc4c(cc3c2=O)OCO4)c1,-3.2%,29,-10,.,2.3,9.9%,-4%
Cc1cccc(-c2nc3c(C#N)c[nH]n3c2NC2CCCCC2)c1,0.4%,.,-2,.,-1.2,1.4%,.
CCOC(=O)/C(C#N)=N/Nc1ccccc1OC,0.8%,4,8,-3.3,6.3,?,13%
Nc1nnc(SCC(=O)Nc2cccc(Cl)c2)s1,27%,7,-19,.,0.8,-0.2%,.
COc1ccc(C(=O)NCC(=O)OCc2ccc([N+](=O)[O-])cc2)cc1,.,5,-1,3.2,1.9,3.5%,20%

The listing continues.
structure,ClpP mod,TRPV1 potentiator,TRPML1 blocker,Menin MLL FP FL,TRPML1 ag,PINK1 modulator,Sfp inh
COc1ccc(NC(=O)CN(C)S(=O)(=O)c2ccc3c(c2)CCC(=O)N3)c(OC)c1,-2.6%&3.2%,-34,8&-29,0.3,-0.3&-1.1,1.7%&0.6%,1%
CC1CCN(c2nc3ccc(C(=O)NCc4ccccc4Cl)cc3s2)CC1,-0.9%,.,1,.,0.2,0.5%,.
COC(=O)c1ccc(Oc2ccc3nncn3n2)cc1,0.6%,0,41,2.6,-0.4,-0.8%,22%
CC(=O)Nc1ccc(S(=O)(=O)N(C)CC(=O)OCC(=O)Nc2ccc3c(c2)OCO3)cc1,1.2%,12,-11,2.7,0.6,-0.4%,1%
Cc1nc2ccccc2c(=O)n1-c1cccc(NC(=O)c2cccs2)c1,.,-3,-1,.,-0.1,-2.7%,.
COc1ccccc1NC(=O)CCS(=O)(=O)c1ccc2nc(C)sc2c1,0.9%,.,-7,.,1.7,0.7%,.
Cc1ccc(/C=C(/NC(=O)c2ccccc2)C(=O)NCCc2c[nH]c3ccccc23)o1,0.6%,-8,11,12,-1.2,-0.4%,-8%
Cc1cc2c(cc1S(=O)(=O)CCC(=O)NC1CCC(C)CC1)OCC(=O)N2 (centres undefined),1.3%&1.6%,5,28&-30,-3.2,-0.3&0.5,0.9%&0.1%,6%
Cc1c(C)n(C(=O)CSc2nccn2C)c2ccccc12,-2.2%,6,-2,4.5,-0.9,-0.3%,-17%
CN(C(=O)CSc1nc2ccc(Cl)cc2[nH]1)C1CCS(=O)(=O)C1 (centres undefined),-0.3%,.,16,.,-0.9,3.5%,.
C/C(=N\N=C(/N)SC1CC(=O)N(c2ccc(Cl)c(Cl)c2)C1=O)c1cccs1 (centres undefined),-0.9%,-8,-1,5.2,1.0,9.7%[38.3 µM],19%
O=C1c2ccccc2S(=O)(=O)N1CCS(=O)(=O)c1ccc(F)cc1,.,13,-7,-4.8,0.1,-0.3%,1%

More structures
structure,ClpP mod,TRPV1 potentiator,TRPML1 blocker,Menin MLL FP FL,TRPML1 ag,PINK1 modulator,Sfp inh
O=C(Cn1[nH]c(=O)c2ccccc2c1=O)OCC(=O)N1CCCc2ccccc21,-3.1%,-4,5,5.3,-1.0,0.2%,11%
CSC1=NCCN1C(=O)c1ccc(Br)o1,-5.7%,-3,7,1.7,-0.5,2.0%,-9%
Cc1ccc(CNc2ccc(-c3nc(-c4ccccn4)no3)cc2[N+](=O)[O-])cc1,1.2%,.,-2,.,-0.1,?,.
COCCCN(C(=S)Nc1ccc(C)cc1Cl)C(C)c1ccncc1 (centres undefined),1.8%,3,-16,4.5,1.5,-1.1%,-10%
C(=N\N1CCN(C(c2ccccc2)c2ccccc2)CC1)/c1ccc2c(c1)OCO2,0.7%,3,-10,-5.7,0.2,6.2%,-11%
CCC(=O)Nc1cc(C(C)C)c(O)cc1C,2.5%,5,0,4.6,-0.5,-0.4%,21%
C/C(Cc1ccccc1)=N\NC(=O)CNC(=O)COc1ccccc1,-2.8%,4,-17,1.7,-0.7,-1.4%,21%
COc1ccc(-n2c(SCc3nc(-c4ccc(C)cc4)no3)nnc2-c2ccccc2)cc1,-1.4%,.,-18,.,-0.5,3.5%,.
CC(C)CNc1c(N)c(=O)oc2ccccc12,13%,0,-4,0.6,0.1,0.4%[38.3 µM],-9%
C=CCN(CC=C)CCCOc1ccccc1C(=O)OC,.,8,-11,4.0,-0.5,-0.1%,-19%
Cc1ccc(S(=O)(=O)NC(=O)C2(C)CCN2C(=O)c2ccccc2CCc2ccccc2)cc1 (centres undefined),1.3%,.,.,.,-0.5,-0.9%,.
CCN(CC)C(=O)C1=C(C)N(Cc2ccc(C(C)(C)C)cc2)C(=O)C(CC(=O)NC(c2ccccc2)c2ccccc2)C1 (centres undefined),-2.0%,.,47,.,1.4,8.0%,.

(listing goes on)
structure,ClpP mod,TRPV1 potentiator,TRPML1 blocker,Menin MLL FP FL,TRPML1 ag,PINK1 modulator,Sfp inh
CN(CCCN1CCOCC1)C(=O)c1cc(COc2ccc(F)cc2F)on1,1.3%,25,-4,.,-0.2,1.3%,1%
COCCCNC(=O)Cn1c(=O)n(-c2ccc(C)c(C)c2)c(=O)c2c3c(sc21)CCCCC3,1.6%,.,12,.,-0.7,1.3%,.
Cc1cc(C)n(CCNS(=O)(=O)c2ccccc2)n1,.,0,13,5.1,-0.2,2.2%,0%
Cc1ccc(-n2ncc(C(=O)NCCCN3CCc4ccccc4C3)c2C2CCN(C(=O)OC(C)(C)C)CC2)c(C)c1,0.1%,.,9,.,1.1,1.0%,.
O=C(Oc1c(-c2ccccc2Cl)oc2ccccc2c1=O)c1ccc(Cl)cc1,-0.2%,11,40,18,0.6,2.5%,-9%
Cc1cc(=O)n2c(C(=O)Nc3ccc(C(=O)OC(C)C)cc3)c(C(=O)Nc3ccccc3)sc2n1,-6.5%,-12,4,2.3,0.6,0.8%,-21%
CCN(CC)c1ccc(NC(=O)Cn2c(C(C)NC(=O)c3ccccc3)nc3ccccc32)cc1 (centres undefined),-5.3%,3,-9,2.3,0.4,4.5%,-11%
CC1CC(C)CN(CCCNC(=O)CN2C(=O)COc3ccc(S(=O)(=O)N4CCOCC4)cc32)C1 (centres undefined),1.3%,0,22,-2.3,-0.3,0.7%,9%
COc1ccc(N(C)S(=O)(=O)c2cccc(C(=O)OCC(=O)N(C)c3ccccc3)c2)cc1,-1.7%,.,17,.,3.3,-0.9%,.
CCOC(=O)C1=C(C)NC(C)=C(C(=O)OCC)C1C(=O)OCC(=O)N1CCc2ccccc2C1,-11%,5,-11,-3.1,6.2,0.4%,-6%
O=C(CC1c2ccccc2Oc2ccccc21)NCc1ccco1,-3.0%,-8,-13,2.4,1.0,.,2%
O=S(=O)(c1cccc(F)c1)N1CCC(CO)(Cc2cccc(F)c2)CC1,-20%,-13,12,-2.6,0.6,1.4%,8%
CCCN=C1N(CC)C[C@@H]2[C@@H]3C(=O)N(C)C(=O)[C@@H]3[C@](C)(C(=O)OC)N12,1.3%,.,-28,.,1.5,1.8%,.
CC1CN(Cc2ccccc2Cl)CC(C)O1 (centres undefined),-0.2%,-2,-3,0.4,-0.2,-2.5%[38.3 µM],?

Look-ups from above.
Under TRPV1 potentiator, CN(CCCN1CCOCC1)C(=O)c1cc(COc2ccc(F)cc2F)on1 is listed with 25
Under TRPV1 potentiator, CCOC(=O)C1=C(C)NC(C)=C(C(=O)OCC)C1C(=O)OCC(=O)N1CCc2ccccc2C1 is listed with 5

Assay outcomes: PubChem, National Center for Advancing Translational Sciences (NCATS)
